MITF inhib = MITF inhibition. TRPM1 promoter luciferase, luminescence, 24 h. inhibition, % (concentration not given with the values). 0.28% of 37,000 active. AID 2240;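 active means most replicates at 85% or more, or half of them and the mean; inconclusive means half reach 85% but not the mean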;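 further: human melanocyte line stably carrying TRPM1 promoter luciferase reporter; 0% = vehicle wells and 100% = a positive control; the first replicate is given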
Hedgehog inh = blocks Sonic Hedgehog signaling; Shh-LIGHT2 Gli-luciferase reporter, 30 h; inhibition, % (test concentration not listed); 2.1% of 22,000 active; AID 2313;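 active means replicate mean of 65% or more; inconclusive means mean lower but half the replicates past it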;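 further: pathway switched on by Shh-conditioned medium diluted 1 in 25 in low serum; 100 nL library stock added to about 40 µL; 0% = median of neutral wells and 100% = positive control level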
PD-1 reversal = reversal of PD-1 mediated T-cell inhibition; primary human CD4 T cells, PD-L1 beads, CellTiter-Glo 96 h; activation, % (test concentration not listed); 29,000 tested, under 10 active;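 active means replicate mean of 50% or more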;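 further: 0% = median vehicle wells and 100% = positive control; 100 nL library stock added to about 50 µL; numbers are from one replicate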
YB-1 expr inh = YB-1 expression inhibition; U2OS, qRT-PCR YB-1 vs CDIP delta delta Cp, 16 h; stronger effect = higher value; zero = DMSO, each unit about twofold; delta delta Cp (YB-1 minus CDIP) (test concentration not listed); 0.37% of 30,000 active;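 active means delta delta Cp rounded down to an integer at or above 3, about 3 SD of DMSO wells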;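 further: higher means less YB-1 transcript or more CDIP transcript relative to DMSO; stock transfer was 100 nL into about 100 µL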
Active calls of the source: *; ? = inconclusive; nt = no result given.

SMILES | MITF inhib | Hedgehog inh | PD-1 reversal | YB-1 expr inh
COc1cc(OC)c(C(=O)CCCN2CCCC2)c(OC)c1 | -3 | -10 | nt | -0.18
CC(C)NC(=O)Nc1cccc2c1O[C@@H](CN(C)C(=O)Nc1ccccc1)[C@@H](C)CN([C@@H](C)CO)C2=O | 8 | -22 | 2.1 | -0.03
COc1ccc(NC(=O)CN(C)S(=O)(=O)c2ccccc2)cc1OC | -10 | nt | 1.1 | nt
CN1C(C(=O)Nc2ccccn2)C(=O)c2ccccc2S1(=O)=O (stereo unspecified) | 3 | -27 | 4.9 | -0.45
COc1ccc(CN(C)C[C@H]2Oc3ccc(NC(=O)CCN4CCOCC4)cc3C(=O)N([C@H](C)CO)C[C@@H]2C)cc1 | -4 | -13 | 2.5 | -0.14
NC(=O)c1nnc2ccc(Cl)cc2c1N | 2 | -19 | -0.6 | -0.47
N#Cc1c(F)cccc1NCCc1ccccn1 | -63 | -74 | 1.2 | 0.13
COC(=O)CSc1nnc(-c2ccccc2)o1 | 0 | nt | -0.4 | -0.56
CCC(=O)c1ccc(OC)cc1OC | -18 | 2 | 1.6 | 0.09
Cc1ccc(S(=O)(=O)N(C)C[C@@H]2Oc3ccc(NS(=O)(=O)c4cn(C)cn4)cc3CC(=O)N([C@H](C)CO)C[C@@H]2C)cc1 | -2 | 11 | 1.4 | -0.16
c1cn2c3c(n1)CCCc3c1cc(C3CCCCC3)ccc12 | -28 | 14 | -0.2 | -0.13
Cc1ccc(S(=O)(=O)N(C)C[C@@H]2Oc3c(NC(=O)C4CCCCC4)cccc3C(=O)N([C@H](C)CO)C[C@@H]2C)cc1 | 6 | 70* | 0.2 | 0.26
Cc1cc(NC(=O)CSc2nnc(-c3ccccc3Cl)n2C)ccc1Br | 46 | nt | 0.1 | nt
C[C@H](CO)N1C[C@H](C)[C@@H](CN(C)Cc2ccc(C(=O)O)cc2)Oc2c(NC(=O)c3ccc(-c4nccs4)cc3)cccc2C1=O | 0 | 1 | 2.8 | 0.5
O=C(O)CCC(=O)Nc1ccc(Br)c2cccnc12 | -16 | nt | -1.6 | nt
C[C@@H]1CN([C@@H](C)CO)C(=O)c2cccc(NC(=O)C3CCOCC3)c2O[C@@H]1CN(C)S(C)(=O)=O | -11 | -19 | nt | -0.5
CCOC(=O)c1ccc2nc(C(F)(F)F)nc(N3CC(C)OC(C)C3)c2c1 (stereo unspecified) | -26 | 13 | -1.5 | -0.72
CNC[C@H]1Oc2c(NC(=O)Nc3ccc(F)cc3)cccc2C(=O)N([C@H](C)CO)C[C@@H]1C | 0 | -48 | 0.4 | -0.3
CC(C)C[C@H]1C(=O)N2CCC[C@H]2[C@]2(O)O[C@](NC(=O)[C@@H]3C=C4c5cccc6[nH]c(Br)c(c56)CC4N(C)C3)(C(C)C)C(=O)N12 (stereo partly specified) | 17 | -21 | -5.1 | 0.026
Cc1noc(C)c1S(=O)(=O)N(C)C[C@H]1Oc2ccc(NC(=O)Nc3ccc(C(F)(F)F)cc3)cc2CC(=O)N([C@@H](C)CO)C[C@H]1C | 36 | nt | -1.0 | -0.13
COC(=O)CSc1nnc(-c2sc3ccccc3c2Cl)n1-c1ccc(OC)cc1 | -15 | nt | -2.2 | nt
CC(C)NC(=O)N(C)C[C@H]1Oc2ccc(NC(=O)Cc3cn(C)c4ccccc34)cc2C(=O)N([C@@H](C)CO)C[C@@H]1C | 8 | nt | nt | -0.52
Cc1oc2c(c1C(=O)NC1CCCC1)C(=O)c1ccccc1C2=O | 70 | 59 | -3.8 | 0.76
Cc1cc(C)nc(N(C#N)CC(=O)N2c3ccccc3CCc3ccccc32)n1 | -10 | nt | 0.3 | nt
C[C@@H]1CN([C@@H](C)CO)C(=O)c2cc(NC(=O)Cc3cn(C)c4ccccc34)ccc2O[C@H]1CN(C)C(=O)Nc1ccccc1 | 10 | 5 | -1.3 | 0.18
C[C@@H]1CCCCO[C@H](CN(C)C(=O)C2CCCCC2)[C@@H](C)CN([C@H](C)CO)C(=O)c2cc(NC(=O)Nc3ccc4c(c3)OCO4)ccc2O1 | -11 | 39 | -0.6 | 0.0091
C[C@@H]1CN([C@H](C)CO)C(=O)c2cccc(NS(=O)(=O)c3ccc(F)cc3)c2O[C@H]1CN(C)Cc1ccc(C(=O)O)cc1 | 7 | -22 | 5.0 | -0.11
C[C@@H]1CN([C@H](C)CO)C(=O)c2cc(NC(=O)CCCCCC(=O)Nc3ccccc3N)ccc2O[C@@H]1CN(C)C(=O)NC1CCCCC1 | -11 | nt | -0.9 | -0.28
CC(=O)OC[C@]12[C@@H](OC(C)=O)C[C@@H]3[C@@H](OC(=O)c4ccccc4)[C@]1(OC3(C)C)[C@H](C)C[C@H](OC(=O)c1ccccc1)[C@@H]2OC(C)=O | 7 | -11 | -1.2 | 1.1
Oc1ccc(CNc2cccc(C(F)(F)F)c2)c2cccnc12 | 26 | ? | -4.3 | -0.39
C[C@H]1CN([C@@H](C)CO)C(=O)c2cc(NS(=O)(=O)c3cn(C)cn3)ccc2O[C@H]1CN(C)C(=O)Nc1ccccc1 | 2 | 0 | nt | 0.53
C[C@@H]1CN([C@@H](C)CO)C(=O)Cc2cc(NC(=O)Nc3ccc4c(c3)OCO4)ccc2O[C@@H]1CN(C)Cc1ccc(C(F)(F)F)cc1 | 1 | -14 | 0.4 | -0.33
COc1ccc(NC(=O)N(C)C[C@@H]2Oc3c(NC(=O)c4cnccn4)cccc3C(=O)N([C@H](C)CO)C[C@H]2C)cc1 | 13 | -15 | -0.9 | 0.38
Cc1ccc(S(=O)(=O)N2CCCC2C(=O)Nc2ccc(O)cc2)cc1 (stereo unspecified) | 4 | nt | -2.3 | nt
C[C@@H]1CN([C@@H](C)CO)C(=O)c2cc(NC(=O)Cc3ccccc3)ccc2O[C@@H]1CN(C)C(=O)NC1CCCCC1 | 5 | nt | nt | -0.058
C[C@@H]1CN([C@@H](C)CO)C(=O)c2cc(NC(=O)C3CC3)ccc2O[C@@H]1CN(C)Cc1ccc(Oc2ccccc2)cc1 | 0 | nt | -1.7 | -0.19
Cc1ccc(S(=O)(=O)N(C)C[C@@H]2Oc3ccc(NC(=O)CCCN(C)C)cc3C(=O)N([C@@H](C)CO)C[C@H]2C)cc1 | -2 | nt | nt | 0.059
Cc1ccc(N(C(C)C(=O)Nc2ccc(I)cc2)S(C)(=O)=O)cc1 (stereo unspecified) | 2 | nt | -1.1 | nt
COc1ccc(NC(=O)Nc2ccc3c(c2)C(=O)N([C@H](C)CO)C[C@H](C)[C@@H](CN(C)Cc2ccccc2)O3)cc1 | -3 | nt | 0.9 | -0.089
C[C@H]1CN([C@@H](C)CO)C(=O)c2cccc(NC(=O)C3CC3)c2O[C@H]1CN(C)Cc1ccc(-c2ccccc2)cc1 | -3 | 25 | nt | 0.023
C[C@@H]1CN([C@H](C)CO)C(=O)c2cccc(NS(=O)(=O)c3cn(C)cn3)c2O[C@@H]1CN(C)S(=O)(=O)c1cn(C)cn1 | 6 | 30 | nt | -0.13
COc1ccc(-c2cc(=O)c3ccccc3o2)cc1 | 4 | -74 | nt | -0.19
C[C@@H]1CN([C@H](C)CO)C(=O)Cc2cc(NC(=O)Cc3cn(C)c4ccccc34)ccc2O[C@H]1CN(C)Cc1ccc(C(F)(F)F)cc1 | 3 | 14 | -3.6 | 0.00043
Cc1ccc(S(=O)(=O)N(C)C[C@@H]2Oc3ccc(NS(=O)(=O)c4cn(C)cn4)cc3C(=O)N([C@@H](C)CO)C[C@@H]2C)cc1 | -15 | nt | 1.0 | -0.16
C[C@@H]1CN([C@@H](C)CO)C(=O)c2cccc(NC(=O)Nc3ccccc3)c2O[C@H]1CN(C)Cc1ccccc1 | 41 | -13 | -6.2 | 0.0096
CS(=O)(=O)N(CC(=O)Nc1ccccc1C(=O)N1CCOCC1)c1cccc(Cl)c1Cl | -11 | nt | 0.8 | nt
C[C@@H]1CN([C@H](C)CO)C(=O)Cc2cc(NC(=O)CCN3CCOCC3)ccc2O[C@@H]1CN(C)C(=O)Nc1ccc(C(F)(F)F)cc1 | 2 | -31 | -0.3 | 0.6
C[C@H]1CN([C@@H](C)CO)C(=O)Cc2cc(NC(=O)CCN3CCOCC3)ccc2O[C@@H]1CN(C)Cc1ccncc1 | 11 | -1 | 2.2 | 0.14
CC(=O)c1ccc(NC(=O)CSc2nnc3n(C)c(=O)c4c5c(sc4n23)CCCC5)cc1 | -41 | nt | -3.0 | nt
COc1ccc(-c2nnc3c4ccccc4c(C)nn23)cc1S(=O)(=O)NCc1ccccc1 | 41 | nt | -0.4 | nt

Part of the list above in a different format.
mol	MITF inhib	Hedgehog inh	PD-1 reversal	YB-1 expr inh
C[C@@H]1CN([C@H](C)CO)C(=O)Cc2cc(NC(=O)Cc3cn(C)c4ccccc34)ccc2O[C@H]1CN(C)Cc1ccc(C(F)(F)F)cc1	3	14	-3.6	0.00043
Cc1ccc(S(=O)(=O)N(C)C[C@@H]2Oc3ccc(NS(=O)(=O)c4cn(C)cn4)cc3C(=O)N([C@@H](C)CO)C[C@@H]2C)cc1	-15	nt	1.0	-0.16
C[C@@H]1CN([C@@H](C)CO)C(=O)c2cccc(NC(=O)Nc3ccccc3)c2O[C@H]1CN(C)Cc1ccccc1	41	-13	-6.2	0.0096

Going on with the list:
SMILES | MITF inhib | Hedgehog inh | PD-1 reversal | YB-1 expr inh
COc1ccc(/C=C/C(=O)NCc2ccccc2)cc1 | -46 | nt | -0.3 | 0.026
COc1cc(C)c(Cl)cc1S(=O)(=O)NCCN1CCOCC1 | -7 | nt | 2.3 | nt
COc1ccc(CN(C)C[C@@H]2Oc3ccc(NC(=O)c4ccncc4)cc3C(=O)N([C@H](C)CO)C[C@H]2C)cc1 | -1 | -7 | nt | -0.29
Cc1c(Cl)cccc1Nc1ccccc1C(=O)O | -3 | -15 | nt | -0.33
C[C@H]1CN([C@@H](C)CO)C(=O)c2cccc(NS(=O)(=O)c3cn(C)cn3)c2O[C@H]1CN(C)C(=O)Nc1cccc2ccccc12 | 4 | 10 | 1.6 | -0.47
C[C@@H]1CN([C@@H](C)CO)C(=O)c2cc(NC(=O)CCCN(C)C)ccc2O[C@@H]1CN(C)S(=O)(=O)c1cn(C)cn1 | -7 | nt | nt | -0.12
C[C@@H]1CCCCO[C@H](CN(C)C(=O)NC2CCCCC2)[C@@H](C)CN([C@H](C)CO)C(=O)c2cc(NC(=O)CCC(F)(F)F)ccc2O1 | 4 | 21 | -1.5 | -0.0098
COc1ccc(S(=O)(=O)N(C)C[C@@H]2Oc3ccc(NS(=O)(=O)c4ccccc4)cc3C(=O)N([C@H](C)CO)C[C@H]2C)cc1 | -2 | nt | -1.2 | -0.012
O=C(COc1ccc(I)cc1)Nc1ccc([N+](=O)[O-])cc1O | 44 | nt | -2.5 | nt
C[C@H]1CN([C@@H](C)CO)C(=O)Cc2cc(NS(=O)(=O)c3ccccc3)ccc2O[C@H]1CN(C)S(=O)(=O)c1cn(C)cn1 | -7 | -10 | 2.5 | 0.24
Nc1nnc(SCC(=O)N2CCN(Cc3ccccc3)CC2)s1 | -1 | nt | 2.1 | nt
COc1ccc2c(=O)cc(-c3ccccc3OC)oc2c1 | -42 | 7 | nt | 0.09
O=C(COc1ccc([N+](=O)[O-])cc1)Nc1ccc2oc(-c3ccc(F)cc3)nc2c1 | 36 | nt | -3.1 | nt
Cc1ccc(-c2noc(CN(C(=O)c3cccc([N+](=O)[O-])c3)C(C)C)n2)cc1 | -7 | nt | 1.2 | nt
CC(C)NC(=O)Nc1ccc2c(c1)C(=O)N([C@H](C)CO)C[C@@H](C)[C@@H](CN(C)C(=O)Nc1ccccc1)O2 | 1 | -31 | 0.9 | -0.17
C[C@H](CO)N1C[C@H](C)[C@@H](CN(C)S(=O)(=O)c2ccc(F)cc2)Oc2ccc(NS(=O)(=O)c3cn(C)cn3)cc2C1=O | 2 | 18 | 1.5 | 0.62
C[C@@H]1CN([C@@H](C)CO)C(=O)c2cc(NC(=O)Nc3ccc(C(F)(F)F)cc3)ccc2O[C@H]1CN(C)C(=O)Nc1ccccc1 | 11 | 5 | 2.1 | -0.24
CNC[C@@H]1Oc2ccc(NC(=O)Nc3ccc4c(c3)OCO4)cc2CC(=O)N([C@@H](C)CO)C[C@@H]1C | -7 | nt | 1.0 | 0.09
Cc1cc(C(=O)Nc2cccc3c2O[C@H](CN(C)Cc2ccc(-c4ccccc4)cc2)[C@@H](C)CN([C@H](C)CO)C3=O)n(C)n1 | 50 | 40 | -1.1 | -0.18
CCOc1ccccc1-c1nc(SCC(=O)Nc2sc3c(c2C#N)CCCC3)n[nH]1 | -2 | nt | 0.3 | nt
Cc1ccc(S(=O)(=O)N(C)C[C@@H]2Oc3ccc(NS(C)(=O)=O)cc3CC(=O)N([C@H](C)CO)C[C@H]2C)cc1 | -10 | -14 | 0.3 | -0.53
CC(C)NC(=O)Nc1cccc2c1O[C@@H](CN(C)C(=O)Nc1ccc(C(F)(F)F)cc1)[C@@H](C)CN([C@H](C)CO)C2=O | 6 | -18 | 1.0 | 0.25

An excerpt from above, reduced to YB-1 expr inh:
| Structure | YB-1 expr inh |
| --- | --- |
| CCOC(=O)c1ccc2nc(C(F)(F)F)nc(N3CC(C)OC(C)C3)c2c1 (stereo unspecified) | -0.72 |
| CNC[C@H]1Oc2c(NC(=O)Nc3ccc(F)cc3)cccc2C(=O)N([C@H](C)CO)C[C@@H]1C | -0.3 |

High-throughput results from PubChem BioAssay.

Some of the compounds tested; rates above refer to the full screens.
